AID923 – qHTS Assay for Allosteric/Competitive Inhibitors of Caspase-1: Spectroscopic Profiling in AFC Spectral Region | Potency, µM (titrated, usually from 57.5 µM), for inactives: at the highest dose fluorescence increase, hits mostly activators | compound fluorescence, AFC spectral region (405/520 nm); almost no hit is shown here | 75,000 compounds, 1.1% hits | AID 923, 2007; active = well fitted activation curve with a large enough effect; inconclusive = small, poorly fitted or top-dose-only effect;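 note: potency is the fitted concentration of half-maximal effect; 0% is about no effect; scaled to a free AFC standard on each plate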
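Compound autofluorescence profiled at 405 nm ex/520 nm em during kinetic caspase 1 run (50 nM enzyme, 5 uM Ac-WEHD-AFC, HEPES pH 7.5, 10 mM DTT). Titration up to 57 uM; baseline from regression intercept, normalized to AFC standard curve.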
Resorufin fluor – compounds fluorescent in resorufin spectral region. max dye-equivalent concentration, M. Compound fluorescence, resorufin region 547/598 nm, buffer; stronger effect = higher value. 59,000 compounds, 0.04% hits; active = above 10 nM dye equivalent; inconclusive = 1 to 10 nM; inactive = 1 nM or less; a few of its hits are not listed in these tables; note: highest value over a series up to 38 µM
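Compounds in 100 mM Tris, pH 8.0, incubated 15 min at room temperature, then fluorescence read at 547 nm excitation/598 nm emission. Signal converted to dye-equivalent concentration via an on-plate six-point resorufin standard curve, per compound concentration.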
A488 autofl – compound autofluorescence in A488 spectral region; compound autofluorescence, A488 spectral region, dye equivalency; stronger effect = higher value; 59,000 compounds, 0.1% hits; max dye equivalency, M; active = above 10 nM dye equivalent; inconclusive = 1 to 10 nM; inactive = 1 nM or less; about half of its hits are not listed in these tables;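 note: highest value over a series up to 38 µM; compound alone in buffer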
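Spectroscopic profiling in the A488 region: compounds in pH 8.0 Tris (100 mM), 15 min RT, CCD imaging with 480 nm excitation and 540 nm emission; responses normalized against A488 dye standards.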
TSHR agonist – agonists of human thyroid stimulating hormone receptor; HEK293-CNG-TSHR cells (CNG channel as cAMP sensor), membrane potential dye, cAMP; Potency, µM (titrated, usually from 57.1 µM), without a hit: top-dose activation, hits mostly activators; 73,000 compounds, 0.48% hits; AID 926; active = well fitted activation curve of enough size with the parental cells flat; inconclusive = any curve in the parental cells; inactive = parental cells flat and receptor cells flat or falling; note: potency is the fitted concentration of half-maximal effect; % of control where 0% means no effect; weak receptor curves with flat parental cells got no call and are not listed
Target sequence (P16473 whole entry, looked up): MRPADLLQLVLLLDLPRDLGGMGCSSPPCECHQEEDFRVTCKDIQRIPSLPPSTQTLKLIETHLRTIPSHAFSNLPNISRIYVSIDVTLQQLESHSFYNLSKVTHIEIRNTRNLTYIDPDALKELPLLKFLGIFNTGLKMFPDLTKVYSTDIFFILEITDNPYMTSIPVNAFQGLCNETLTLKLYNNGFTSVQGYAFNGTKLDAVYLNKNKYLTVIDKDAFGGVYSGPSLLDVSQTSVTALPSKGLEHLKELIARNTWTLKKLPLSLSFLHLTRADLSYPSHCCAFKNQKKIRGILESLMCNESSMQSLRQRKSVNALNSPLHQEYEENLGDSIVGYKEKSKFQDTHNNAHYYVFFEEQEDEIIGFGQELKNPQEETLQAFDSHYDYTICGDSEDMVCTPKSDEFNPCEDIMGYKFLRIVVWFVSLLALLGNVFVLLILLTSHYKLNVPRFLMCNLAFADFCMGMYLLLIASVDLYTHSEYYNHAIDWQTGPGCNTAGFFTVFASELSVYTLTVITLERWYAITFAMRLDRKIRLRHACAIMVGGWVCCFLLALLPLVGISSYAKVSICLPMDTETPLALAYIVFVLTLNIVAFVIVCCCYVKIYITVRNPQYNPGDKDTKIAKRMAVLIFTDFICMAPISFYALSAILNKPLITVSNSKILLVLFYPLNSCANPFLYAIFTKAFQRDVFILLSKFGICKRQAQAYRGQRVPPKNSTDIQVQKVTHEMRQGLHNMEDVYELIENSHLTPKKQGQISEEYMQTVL
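HEK 293 cells stably expressing TSHR and a cAMP-gated CNG channel; parental CNG-only cells as counterscreen. Cells preloaded 60 min with membrane potential dye plus 100 uM RO 20-1724, then compound 30 min; fluorescence read at 590 nm.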
A647 autofl – compound fluoresces in the A647 spectral region; max dye-equivalent concentration, M; 59,000 tested, under 10 active; Compound fluorescence, A647 channel (570/671 nm), Tris buffer; active means above 1 µM dye equivalent; inconclusive means 0.1 to 1 µM; inactive means 0.1 µM or less;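 note: values scaled relative to a standard on each plate; highest value over a series up to 38 µM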
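Fluorescence read (570 nm ex, 671 nm em) after 15 min RT incubation of compounds in 100 mM Tris buffer, pH 8.0; values expressed as dye-equivalent concentration against a six-point A647 standard series on each plate.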
* marks the source's active call; other numbers are inactive results; i = inactive; ? = inconclusive; nt = not tested or not shown; [ ] = remark or other dose. Not all compounds are listed; rates above refer to the full screens.

Second line of a record: Resorufin fluor | AID923 | A647 autofl | A488 autofl | TSHR agonist
COc1ccc(OC)c(C(=O)CSc2nc3c(c(=O)n(C)c(=O)n3C)n2C(C)C)c1
→ i | 0.2% | 3.3e-08 | i | 7%
Cc1nnc(NC(=O)C2CCCO2)s1 (stereo not drawn)
→ i | -1.0% | 1e-09 | i | 6%
Nc1c(C(=O)NCc2ccco2)nnn1-c1ccccc1
→ i | 1.2% | 2.1e-08 | i | 1%
CC(=O)c1ccc(OCCCC(=O)NCC(c2ccco2)N(C)C)cc1 (stereo not drawn)
→ i | 0.0% | 1.6e-08 | i | -1%
CCC(C)Sc1nc2c(c(=O)[nH]c(=O)n2C)n1Cc1ccc(Cl)cc1 (stereo not drawn)
→ i | 0.6% | 3.5e-09 | i | nt
COc1ccccc1NC(=O)CN1CCN(C2c3ccccc3-c3ccccc32)CC1
→ i | 1.8% | 3.6e-08 | i | ?
CCCCc1ccc(-c2nc(N)n[nH]2)cc1
→ nt | -1.2% | nt | nt | ?
O=C(CSc1nnnn1C1CCCC1)c1ccc2c(c1)OCCO2
→ i | -0.5% | 3.5e-08 | i | ?
CSCCC(NS(=O)(=O)c1cccs1)C(=O)NCc1cccs1 (stereo not drawn)
→ i | 0.3% | 3.2e-08 | i | 4%
CCCc1c(C(=O)OCC)[nH]c2c1C(=O)CCC2
→ nt | -0.9% | nt | nt | 5%
COc1ccc(CCn2nnnc2C(C(C)C)N2CCC(C(N)=O)CC2)cc1OC (stereo not drawn)
→ i | -1.7% | 1e-09 | i | -10%
Nn1c(SCc2cccc(C(F)(F)F)c2)nnc1-c1ccco1
→ i | 0.1% | 4.2e-09 | i | 20%
O=C(CSc1nccn1Cc1ccccc1)Nc1nccs1
→ i | 0.4% | 4e-08 | i | 4%
c1ccc2c(-n3ccnc3)nc(-c3ccoc3)nc2c1
→ i | 0.0% | 1e-09 | i | 7%
CCOc1ccccc1-n1c(CN2CCN(C(=O)c3ccco3)CC2)nc2ccccc2c1=O
→ i | -1.5% | 1e-09 | i | nt
COC(=O)C1(S(=O)(=O)c2cc(Br)cc3c2N(C(C)=O)CC3)CC1
→ i | 1.3% | 1e-09 | i | 1%
O=C(O)CSc1nc2ccccc2[nH]1
→ i | -1.5%[11.5 µM] | 1e-09 | i | 4%[11.4 µM]
CC(C)NS(=O)(=O)c1ccc(OCC(=O)NCc2ccc3c(c2)OCO3)c(Cl)c1
→ i | 0.9% | 1.4e-08 | i | -6%
O=C1N(CCCCN2C(=O)C3(OCCO3)c3ccccc32)c2ccccc2C12OCCO2
→ i | -3.0% | 1.7e-09 | i | 17%
O=S(=O)(/C=C/c1ccccc1)n1cnc2ccccc21
→ i | -0.1% | 3.5e-08 | i | 6%
COc1ccc(N2CCN(C(=O)c3cn(C)c(=O)c4c3c3ccccc3n4C)CC2)cc1
→ i | 0.5% | 2.5e-08 | i | 3%
O=C(NCc1cccs1)C1CCCN(S(=O)(=O)c2cccc3cccnc23)C1 (stereo not drawn)
→ nt | 0.5% | nt | nt | 9%
Cc1ccc(NC(=O)CSc2nnc([C@@H]3CCCN3C(=O)OC(C)(C)C)o2)c(C)c1
→ i | -0.3% | 7.7e-09 | i | 0%
Cn1nnc2cc(NC(=O)N3CC4(C)CC3CC(C)(C)C4)ccc21 (stereo not drawn)
→ i | 0.1% | 5.2e-09 | i | ?
COc1ccc(S(=O)(=O)N2CCC(O)(c3ccc4c(c3)OCO4)CC2)cc1
→ i | 0.2% | 1.1e-08 | i | 10%
CCOC(=O)c1cn(CC(=O)Nc2ccccc2C(=O)OCC)nn1
→ i | 0.3% | 3.7e-08 | i | -1%
O=C(CN(Cc1ccccc1)S(=O)(=O)c1ccc2c(c1)OCCO2)Nc1ccc2c(c1)OCCO2
→ nt | 4.7% | nt | nt | 15%
CCCC(=O)Nc1ccc2c(c1)nc(CN1CCCCC1)n2C
→ i | -0.2% | 9e-09 | i | -3%
c1csc(-c2nn3c(C4COc5ccccc5O4)nnc3s2)c1 (stereo not drawn)
→ i | 2.8% | 1.5e-08 | i | ?
CCOC(=O)N=S(N)(=O)c1ccccc1 (stereo not drawn)
→ i | 0.1% | 1.1e-09 | i | -2%
O=C(O)CCN1/C(=C/C=Nc2ccccc2)Oc2ccccc21
→ i | 2.4% | 1.4e-08 | i | -1%
CCc1ccc2[nH]c(=O)c(CN(Cc3ccc4c(c3)OCO4)Cc3nnnn3C3CCCC3)cc2c1
→ i | 11% | 2.1e-08 | i | ?
C=CCNc1nc(NCCN2CCOCC2)nc(N2CCOCC2)n1
→ i | -2.0% | 9.7e-09 | i | -5%
CCn1ncc2c1C(=O)NC1c3ccccc3C(=O)N21 (stereo not drawn)
→ i | 4.0% | 1.5e-09 | i | 1%
O=C(O)CC(CP(=O)(c1ccccc1)c1ccccc1)C(=O)O (stereo not drawn)
→ i | 0.0% | 1e-09 | i | -3%[11.4 µM]
CCc1ccccc1N(CC(=O)N1CCN(c2ccccc2)CC1)S(C)(=O)=O
→ nt | 0.2% | nt | nt | 14%
O=CNCC(=O)NCCc1ccc(Cl)cc1
→ i | -3.0% | 2.1e-08 | i | 8%
c1ccc(Cn2nnc3c(NCC4CCCO4)ncnc32)cc1 (stereo not drawn)
→ i | -1.3% | 1e-09 | i | 0%
CCCC(=O)NC(Nc1ccc(S(=O)(=O)Nc2ncccn2)cc1)(C(=O)OCC)C(F)(F)F (stereo not drawn)
→ i | -0.3% | 2.6e-08 | i | -3%
CCc1nc(N2CCCCC2C)c2oc3ccccc3c2n1 (stereo not drawn)
→ i | -2.2% | 1.4e-08 | i | ?
CC1CCN(S(=O)(=O)c2ccc(NC(=O)CN3CCN(c4ccccc4)CC3)cc2)CC1
→ i | 0.5% | 1e-09 | i | 6%
COc1ccc(Br)cc1C(=O)Nc1nnn(C)n1
→ i | -2.2% | 1e-09 | i | 2%
CCc1nc(SCC(=O)NCCc2ccccc2)n[nH]1
→ i | 3.3% | 3.2e-09 | i | -7%
CCOC(=O)CSc1nc2sc(C(=O)O)c(C)c2c(=O)[nH]1
→ nt | 1.1% | nt | nt | ?
CC1Cc2ccccc2N1C(=O)C1CCN(S(=O)(=O)Cc2ccccc2)CC1 (stereo not drawn)
→ i | 0.0% | 7.4e-09 | i | 7%
COc1cccc(-c2cc(C(=O)NCCN3CCOCC3)no2)c1
→ i | -0.4% | 1e-09 | i | 11%
COc1ccc(OC)c(Nc2nc(-c3cccs3)cs2)c1
→ i | 1.1% | 2.2e-09 | i | 11%
COc1ccc(CNC(=O)CSc2nnnn2Cc2ccccc2)cc1
→ i | 0.6% | 9.2e-09 | i | 7%
O=C(O)CCC(=O)N1CCN(c2nc3ccccc3s2)CC1
→ i | -1.3% | 1.9e-08 | i | 0%
Cc1ccc(S(=O)(=O)N2CCOCC2)cc1C(=O)Nc1c(C)n(C)n(-c2ccccc2)c1=O
→ i | 0.4% | 1e-09 | i | -3%
O=C(O)c1cc(Cl)cc(Cc2cc(Cl)cc(C(=O)O)c2O)c1O
→ i | -2.3%[11.5 µM] | 1e-09 | i | 6%[11.4 µM]
Cc1ccccc1-c1cncnc1NCc1cccs1
→ i | -3.1% | 4.4e-08 | i | ?
COCCn1c(CN2CCN(c3ccc(OC)cc3)CC2)nc2c1c(=O)n(C)c(=O)n2C
→ i | 0.4% | 2.8e-09 | i | 10%
N#Cc1c(NC(=O)CCC(=O)O)sc2c1CCCC2
→ i | nt | 1e-09 | i | nt
CC1CN(C(=O)Cn2cnc3c2c(=O)n(C)c(=O)n3C)CC(C)O1 (stereo not drawn)
→ i | 0.2% | 1e-09 | i | 3%
c1ccc(CNc2ncncc2-c2ccoc2)cc1
→ i | 4.9% | 1.6e-08 | i | ?
CC(=O)OC(C(=O)NCc1ccc2c(c1)OCO2)c1ccccc1Cl (stereo not drawn)
→ i | -1.8% | 1.7e-09 | i | nt
CCOC(=O)c1c(N)sc(=S)c2c1CCC2
→ i | nt | 2.7e-08 | i | nt
COc1ccc(N/C(=N\c2nc(C)cc(C)n2)NC(=O)C(C)C)cc1OC
→ i | nt | 4.9e-08 | i | nt
CC1CCN(S(=O)(=O)c2ccc(Br)s2)CC1
→ i | 1.0% | 4.9e-09 | i | 22%

Further compounds
Second line of a record: Resorufin fluor | AID923 | A647 autofl | A488 autofl | TSHR agonist
Cc1[nH]c2ccc(-c3nnc(SCC(=O)N4CCCc5ccccc54)o3)cc2c1C
→ i | 0.2% | 6.6e-08 | i | ?
Cc1c(NS(C)(=O)=O)c(=O)n(-c2ccccc2)n1C
→ i | -1.3% | 1.3e-08 | i | -1%
CCOC(=O)Cc1csc(NC(=O)c2ccc3c(c2)OCO3)n1
→ i | 3.7% | 4.3e-09 | i | 2%
COc1ccc(N(CC(O)CN2CCCCC2)S(=O)(=O)c2ccc(C)cc2)cc1 (stereo not drawn)
→ i | 1.5% | 5.6e-08 | i | 15%
CC(C)(C)n1ncc2c(=O)n(CC(=O)N3CCc4ccccc43)cnc21
→ i | -1.2% | 1.7e-09 | i | 7%
CN1CCCN([C@@H](c2ccccc2)c2ccc(Cl)cc2)CC1
→ i | -0.8%[25.7 µM] | 1.7e-09 | i | 0%[25.6 µM]
C=CC[C@@H]1C=C[C@@H](O/N=C\[C@@H](OC)[C@H](C)/C=C\CC(=O)OC)[C@@H](CO)O1
→ nt | 0.9%[11.5 µM] | nt | nt | 6%[11.4 µM]
COc1ccc(N2C(=O)CCC(C(=O)N3CCC(C(N)=O)CC3)C2c2ccc(F)cc2)cc1 (stereo not drawn)
→ i | 1.0% | 4.5e-08 | i | -3%[11.4 µM]
Cc1sc2nc(SCC(=O)c3cc(C)n(CC4CCCO4)c3C)n(C(C)C)c(=O)c2c1C (stereo not drawn)
→ i | 2.0% | 3.5e-08 | i | 11%
CCOC(=O)CCN1C(=O)[C@H]2[C@H]3[C@H](O)[C@H](O)C/C(=N/O[C@@H]4O[C@@H](COC(C)=O)[C@@H](OC(C)=O)[C@@H](OC(C)=O)[C@H]4OC(C)=O)[C@@H]3CC[C@@H]2C1=O
→ nt | -1.6%[11.5 µM] | nt | nt | 18%[11.4 µM]
C=CCn1c(SCc2nc3c(c(=O)[nH]c(=O)n3CCCC)n2CCC)nnc1-c1ccccc1
→ i | -0.7% | 1e-08 | i | ?
O=C(c1ccco1)N1CCC2(CC1)CN(c1ccccc1)C2
→ i | 3.7% | 2.2e-09 | i | 6%
CCCCOc1ccc(CN(C)c2ncnc(N)n2)cc1
→ i | nt | 3.7e-08 | i | nt
O=C(O)C1CCCN1S(=O)(=O)c1cccc2cccnc12 (stereo not drawn)
→ nt | 0.9% | nt | nt | 1%
CCS(=O)(=O)NCC(c1cccnc1)N1CCN(c2ccc(F)cc2)CC1 (stereo not drawn)
→ i | 1.5% | 2.6e-09 | i | 4%
Cc1cc(C(=O)N2CCOCC2)n(-c2ccccc2)n1
→ nt | -1.6% | nt | nt | 3%
c1cncc(-c2cncnc2NC2CCNCC2)c1
→ i | -0.5% | 3.7e-08 | i | 4%
CCOc1ccc(Nc2ncnc3c2cnn3-c2ccccc2)cc1
→ nt | -4.0% | nt | nt | 0%
CSc1ccc(-c2nnn(Cc3ccc(C)cc3)n2)cc1
→ nt | -0.8% | nt | nt | ?
COc1ccc(NC(=O)N2CCC3(CC2)CCN(C(=O)c2ccncc2)CC3)cc1
→ i | 0.6% | 1e-09 | i | -1%
Cc1ccc(NC(=O)c2cc(C)on2)cc1
→ i | -0.1% | 4.3e-09 | i | -6%
COc1cccc(C2C(C(=O)c3cccs3)=C(O)C(=O)N2CCCn2ccnc2)c1OC (stereo not drawn)
→ nt | -0.2% | nt | nt | -6%
Cc1noc(C)c1COC(=O)CCC(=O)c1ccc(F)cc1
→ i | -1.9% | 1.3e-08 | i | -1%
